Screening results deposited in PubChem by National Center for Advancing Translational Sciences (NCATS).
TRPML1 inh – blocks the human TRPML1 channel; AID 624415; TRPML1-inducible cells, Ca2+ dye fluorescence, FDSS; stronger effect = lower value; inhibition of EC80 agonist-evoked calcium signal; Q9GZU1; activity change, negative = inhibition, % (test concentration not listed); 390,000 compounds, 0.02% hits; in the data active means activity change below about -50%; inconclusive means about -30% to -50%; inactive means above about -30%;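 further: stimulus is agonist 54-4 at its EC80 concentration; on the % scale 0 is the no-effect control and ±100 the full control effect; compound concentration not given in the record; the text of the record puts the active cut at -80%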
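Calcium fluorescence in TRPML1-DL cells induced overnight with Tet: a 110 s read after compound pin addition, then a 110 s antagonist read after challenge with 54-4 at 4 uM final (EC80).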
Six1-Eya2 blk – Six1/Eya2 interaction inhibition; AlphaScreen GST-Six1/His-Eya2 binding, biochemical; stronger effect = lower value; control for the full effect not named in the record; Q15475+O00167; activity change, % (no concentration beside the values); 360,000 compounds, 0.56% hits; in the data active = activity change below about -65%; inconclusive = about -30% to -65%; inactive = above about -30%; further: on the % scale 0 is the no-effect control and ±100 the full control effect
Target sequence (O00167 whole entry, looked up): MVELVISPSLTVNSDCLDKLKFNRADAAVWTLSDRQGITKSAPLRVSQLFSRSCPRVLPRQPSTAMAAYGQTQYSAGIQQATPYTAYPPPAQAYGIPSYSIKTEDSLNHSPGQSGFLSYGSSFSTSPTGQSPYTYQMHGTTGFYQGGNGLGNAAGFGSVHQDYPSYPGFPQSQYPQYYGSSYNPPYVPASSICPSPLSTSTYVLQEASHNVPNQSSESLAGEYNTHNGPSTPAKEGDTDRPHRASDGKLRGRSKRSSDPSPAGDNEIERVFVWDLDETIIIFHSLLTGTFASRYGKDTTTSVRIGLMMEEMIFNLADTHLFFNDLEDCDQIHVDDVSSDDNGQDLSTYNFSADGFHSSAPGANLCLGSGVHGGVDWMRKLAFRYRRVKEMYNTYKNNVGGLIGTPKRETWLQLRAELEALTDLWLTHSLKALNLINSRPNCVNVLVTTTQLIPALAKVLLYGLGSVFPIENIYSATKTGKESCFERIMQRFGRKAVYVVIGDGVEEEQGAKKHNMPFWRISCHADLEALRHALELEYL
Target sequence (Q15475 whole entry, looked up): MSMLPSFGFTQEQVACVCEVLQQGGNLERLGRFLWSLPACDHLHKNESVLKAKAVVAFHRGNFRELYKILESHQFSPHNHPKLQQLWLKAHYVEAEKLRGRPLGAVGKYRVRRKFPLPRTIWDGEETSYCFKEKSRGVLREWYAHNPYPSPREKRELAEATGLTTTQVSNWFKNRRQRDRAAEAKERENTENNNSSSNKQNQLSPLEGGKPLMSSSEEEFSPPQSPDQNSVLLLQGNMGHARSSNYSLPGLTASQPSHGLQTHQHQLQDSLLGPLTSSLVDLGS
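AlphaScreen luminescence read after one hour at 37 °C in darkness. Pin-transferred compounds met GST-Six1 and His-Eya2 protein (5X stock 250 nM/500 nM) plus glutathione donor and Ni-chelate acceptor beads (5X, 50 ug/mL).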
PINK1 modulator – modulators of PINK1 expression; Potency, µM (doses to about 76.6 µM), for the others: at the highest dose activation (PINK1 increase), actives largely listed as activators; 410,000 compounds, 0.2% hits; AID 624263; PINK1 immunofluorescence, high-content cytometry, 24 h; active = well fitted activation curve with a large enough effect; inconclusive = small, poorly fitted or top-dose-only effect; inactive = flat fitted curve, though single readings scatter; cell line not stated here;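 further: potency means the concentration at half of the fitted maximal effect; % of control where 0% means no effect; nearly all actives have a fitted effect of over 65% in size; a mitochondrial uncoupler was the plate control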
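Stable cell line treated 24 h with compounds at 5 concentrations (CCCP controls), then fixed and immunostained for PINK1 plus nuclear and cell stains; PINK1 immunofluorescence quantified by laser-scanning microplate cytometry.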
D2 PAM – potentiates the human D2 dopamine receptor allosterically. P14416. DiscoveRx D2 beta-arrestin cells, luminescence, 90 min; 100% = 57 uM dopamine signal. 360,000 compounds, 0.23% hits. potentiation, % (no concentration beside the values); active = potentiation of 50% or more; inconclusive = 30% to 50%; inactive = 30% or less;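 further: compound concentration not given in the record; tested on top of an EC20 dose of dopamine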
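D2 cells co-treated with compound plus 50 nM dopamine (EC20) for 90 min at 37 deg C to detect potentiation. Beta-arrestin recruitment was read as enzyme-fragment luminescence after 1 h at ambient temperature. Full response was set by 57 uM dopamine.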
TRPML1 ag – agonists of human TRPML1 channel; Q9GZU1; TRPML1-expressing cells, Ca2+ dye fluorescence, FDSS; host cell line not named in the record; reference of the full effect not given here; activation, % (test concentration not listed); 410,000 compounds, 0.12% hits; AID 624414; in the data active = activation above about 50%; inconclusive = about 30% to 50%; inactive = below about 30%; further: 0% is about no effect; the text of the record puts the active cut at 80%
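Calcium fluorescence on an FDSS kinetic reader gave the read-out. Tet-induced TRPML1-DL cells were plated overnight, dye-loaded (Ca8 with quencher, 45-90 min, room temperature, dark), then read 110 s after compound addition, and again 110 s after 4uM final 54-4 (EC80).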
D2 ag – activates the human D2 dopamine receptor. DiscoveRx PathHunter D2 beta-arrestin, luminescence, 90 min; 100% = 57 uM dopamine signal. activation, % (no concentration beside the values). 360,000 compounds, 0.084% hits; in the data active = activation above about 40%; inconclusive = about 15% to 40%; inactive = below about 15%; further: compound concentration not given in the record; the text of the record calls up to 30% inactive
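Agonist mode: compounds alone added to overnight-plated D2 PathHunter cells for 90 min at 37 C, with 57 uM final dopamine (EC100) defining full response. Beta-arrestin recruitment detected by chemiluminescent reagent, read after 1 h at ambient temperature.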
* = called active by the depositor; u = inconclusive; x = not tested or not shown; & = joins results of further samples; [ ] = another dose, or the depositor's remark.

SMILES	TRPML1 inh	Six1-Eya2 blk	PINK1 modulator	D2 PAM	TRPML1 ag	D2 ag
CCn1c(CNC(=O)c2cccc(C)c2)nc2ccccc21	5.9	-2.4	0.9%	-12.2	-0.1	-1.1
Cc1ccc2sc(C)[n+](CCC(C)S(=O)(=O)[O-])c2c1 (stereo unspecified)	11.6	11.4	-0.4%	-8.7	0.5	-4.4
Cc1nn(-c2ccccc2)c(-n2cccc2)c1C(=O)NCc1ccccc1Cl	11.1	x	1.8%	x	1.5	x
C=C(C)Cn1c(SCC(=O)N/N=C/c2ccccc2OCC(=O)O)nnc1-c1ccc(Br)cc1	4.8	-6.3	-0.3%	-12.1	0.0	-5.0
OC[C@@H]1CN(CCN2CCOCC2)C[C@H](n2cnc3c(NC4CCCC4)ncnc32)O1	-11.1	-3.7	2.6%	-9.9	0.1	-3.2
Cn1ccc2c(OCC(=O)NCc3ccccc3)cccc2c1=O	28.9	x	-0.8%	x	-0.2	x
Clc1ccc(OCc2cnc(Cl)s2)cc1	-1.8	62.9	8.9%	-17.0	1.2	-4.8
CN(C)C1=NC[C@H](Cc2ccccc2)N1CC1CCC(C(C)(C)C)CC1 (stereo partly specified)	3.4	-1.8	19.5%	-12.3	0.5	-2.2
O=c1c2[nH]c3ccc(F)cc3c2ncn1CCN1CCN(Cc2ccccc2)CC1	14.0	3.0	0.6%	-9.8	-0.1	1.5
O=C1CCCc2nc3c(cc21)C(O)Oc1ccccc1-3 (stereo unspecified)	-8.9	1.8	-1.3%	0.0	-0.5	0.6
N#Cc1cnn(-c2nc(SCc3ccccc3)nc3sc4c(c23)CCCC4)c1N	5.7	-7.9	-4.2%[38.3 µM]	-17.1	-0.3	-7.9
CC1(C(=O)NS(=O)(=O)c2cccc(OC(F)F)c2)CCN1C(=O)Cc1ccsc1 (stereo unspecified)	x	5.0	1.1%	-0.6	-0.3	-3.9
Cc1cc(C)nc(SCCn2c(N3CC(C)OC(C)C3)nc3c2c(=O)n(C)c(=O)n3C)n1 (stereo unspecified)	5.4	0.3	0.5%	0.4	1.5	-2.1
CCS(=O)(=O)c1ncc(Cl)c(C(=O)Nc2ccc(C)cc2)n1	-10.7	1.9	-1.7%	-12.8	0.4	-7.0
CC(C)NC(=O)CSc1nc(Cc2cccs2)nc2ccccc12	-6.8	-0.9	x	-4.7	0.5	-3.1
Cn1nc(C(=O)Nc2cccc(S(=O)(=O)N3CCOCC3)c2)c2ccccc2c1=O	-13.2	-11.0	1.6%	-1.5	1.7	3.8
Cn1c(CNC(=O)CCNC(=O)c2ccccc2)cc(=O)n(C)c1=O	-3.7	8.8	1.0%	-5.6	-0.2	-6.6
Cc1cccc(-n2c(O)c(C=Nc3ccccc3N)c(=O)[nH]c2=O)c1	-1.8	-18.1	5.1%[38.3 µM]	-46.9	-0.7	-16.2
O=C(Oc1cccc(-n2cnnn2)c1)C1CCCCC1	-11.8	1.6	x	-18.0	0.2	0.8
CC(=O)c1cccc(S(=O)(=O)Nc2ccc3nc(C)sc3c2)c1	0.0	-6.7	3.0%	0.5	0.5	5.8
Cc1ccccc1-c1nc(CS(=O)(=O)CC(=O)NCCc2ccccc2)c(C)o1	12.6&0.9	-5.1	2.6%&0.0%	-19.4	0.3&0.8	-2.4
CCn1c(COc2cccc(OC)c2)nnc1SCC(=O)Nc1ccccc1C(=O)OC	9.2	-5.2	-6.4%[38.3 µM]	10.0	0.9	1.9
NC(=O)NC(=O)COC(=O)/C=C/c1cccc(Br)c1	6.2	5.3	1.8%	-5.3	1.7	-5.4
Cc1ccc(NC(=O)CN2C(=O)CCc3cc(S(=O)(=O)N4CCOCC4)ccc32)cc1F	-3.5	x	3.0%	x	-0.4	x

Three compounds out of the list above, ordered by the number in D2 ag, highest first:
Structure	D2 ag
Cn1nc(C(=O)Nc2cccc(S(=O)(=O)N3CCOCC3)c2)c2ccccc2c1=O	3.8
Clc1ccc(OCc2cnc(Cl)s2)cc1	-4.8
Cn1c(CNC(=O)CCNC(=O)c2ccccc2)cc(=O)n(C)c1=O	-6.6

Single values from the results shown.
Result for `N#Cc1cnn(-c2nc(SCc3ccccc3)nc3sc4c(c23)CCCC4)c1N` under D2 ag: -7.9
Result for `CC(C)NC(=O)CSc1nc(Cc2cccs2)nc2ccccc12` under D2 ag: -3.1

Continuation.
SMILES	TRPML1 inh	Six1-Eya2 blk	PINK1 modulator	D2 PAM	TRPML1 ag	D2 ag
COc1ccc(C(=O)c2[nH]c(N)c(C(=O)NCCc3c[nH]c4ccccc34)c2-c2ccc(OC)c(OC)c2)cc1	x	u	-0.3%	x	-0.3	x
CN(C)C(=O)COC(=O)c1cccc(S(=O)(=O)N2CC3(C)CC2CC(C)(C)C3)c1 (stereo unspecified)	-14.8	9.5	2.1%	-2.3	1.6	0.8
Cc1ccccc1C(=O)NC1CCN(CC(=O)Nc2ccccc2Cl)CC1	-5.2	2.1	0.7%	-2.5	-0.2	2.2
CCOC(=O)c1cccc(C2=CC(=O)CC(C)(C)C2)c1	73.8	-5.0	3.4%	-8.5	2.2	-6.4
O=C1N/C(=C/c2ccsc2)C(=O)N1c1ccccc1	-5.2	10.0	-0.5%	-4.1	2.2	-3.7
Cc1cc(C(=O)COC(=O)C2CC2)c(C)n1-c1ccc(F)cc1	-16.1	-16.5	0.0%	15.2	-0.3	5.5
Fc1ccc(-c2nc3c4c(-c5ccccc5)c(-c5ccccc5)oc4ncn3n2)cc1	8.3	x	-5.1%	x	0.1	x
CCN1C[C@@H]2[C@@H]3C(=O)N(Cc4ccccc4)C(=O)[C@@H]3[C@](CC)(C1=O)N2C(=O)c1ccccc1	2.3	7.9	-0.2%	-1.9	-0.4	-2.5
COC(=O)CN1C(=O)C(O)=C(C(C)=O)C1c1ccc([N+](=O)[O-])cc1 (stereo unspecified)	1.2	3.3	0.3%	-10.8	2.3	-1.1
COc1ccc(CCNC(=O)N2CCOCC2)cc1	3.1	-1.3	0.9%	-4.2	0.3	-3.0
COC(=O)CN1C(=O)[C@H]2[C@@H](C3CC3)N3C(=O)CN(CCO)C(=O)[C@@]3(Cc3ccccc3)[C@H]2C1=O	-6.7	4.2	0.2%	-28.0	-0.9	0.3
COc1ccc2oc(C(=O)OCC(=O)N(CC(C)C)c3c(N)n(Cc4ccccc4)c(=O)[nH]c3=O)c(C)c2c1	4.7	-6.2	3.1%	-13.8	1.9	2.5
N#CCOC(=O)/C=C/c1ccc2c(c1)OCO2	19.7	-3.8	-0.6%	-1.6	-0.2	-4.3
CC(Sc1nnc(COc2ccccc2)n1Cc1ccccc1)C(=O)O (stereo unspecified)	-6.2	3.5	1.6%	-3.3	0.1	-4.2
COc1ccccc1C1(CCN=Cc2ccc(N(C)C)cc2)CCOC(C)(C)C1 (stereo unspecified)	-4.3	1.3	-0.7%	-4.8	1.4	0.0
CN(C)CCNC(=O)CCCNC(=O)Cn1cnc2sc3c(c2c1=O)CCCC3	-7.1	4.4	-1.6%	-13.8	0.0	-1.3
Fc1ccc2c(c1)NC(c1ccncc1)=NC(c1cccs1)=N2	-19.5	x	1.8%	x	1.4	x
COc1ccc(CN2CCC(Oc3ccc(C(=O)N4CCCCC4)cc3)CC2)cc1C	0.5	-5.3	2.1%	-26.1	0.8	-2.2
CC(=O)Nc1ccc(-c2csc(NC(=O)CN3C(=O)NC4(CCCC4)C3=O)n2)cc1	-5.0	-3.8	9.7%	-7.0	-0.5	2.6
Oc1ccc(C[C@H]2CNC(=S)N2CCc2cc(C(F)(F)F)cc(C(F)(F)F)c2)cc1	6.0	1.4	3.9%	-6.4	1.3	-3.5
O=C(C1CCN(c2ncnc3c2nc2n3CCCCC2)CC1)N1CCN(c2cccc(Cl)c2)CC1	3.9&1.9	-11.0	-0.7%&17.8%	-6.8	0.3&2.6	9.9
Cc1ccc(NC(=O)N2CCN(S(=O)(=O)c3ccccc3)CC2)cc1	-0.2	3.2	1.1%	0.1	-0.7	7.5
Cc1nn(C)c(NC(=O)c2ccccc2Cl)c1Br	-0.1	5.5	0.5%	0.4	2.8	-7.7
Cc1ccc(C)c(N2CCN(CCCc3ccccc3)CC2)c1	-12.3	-0.1	21.1%	-4.6	0.0	-5.9
C=CCn1c(=S)sc2c(=O)[nH]c(C)nc21	8.7	3.5	-0.5%	-9.5	2.2	-2.2
CC1(C)C2CCC1(CS(=O)(=O)NCc1ccc(C(=O)O)cc1)C(=O)C2 (stereo unspecified)	1.1	6.1	-1.4%	-3.6	-0.2	-0.7
CCCCc1n[nH]c2c1C(=O)CC(C)(C)C2	-7.5	4.8	-1.1%	-2.1	-0.8	-1.5
COCCn1c(=S)[nH]c2cc(C(=O)N3CCN(Cc4ccc5c(c4)OCO5)CC3)ccc2c1=O	-4.8	-0.3	-2.4%[38.3 µM]	1.3	0.7	2.4
C#CCOCCOCCOCCNc1nc(N2CCN(C(=O)[C@H](CCCN=C(N)N)n3cc(C(N)[C@@H](C)CC)nn3)CC2)nc(N2CCN(C(=O)[C@H](CCC(=O)O)n3cc([C@@H](N)CC(N)=O)nn3)CC2)n1 (stereo partly specified)	7.9	-0.6	-0.6%	x	0.1	-7.4
Cc1ccc(C2=C(O)c3ccccc3C(=O)C2=O)cc1	-6.4	-11.0	1.3%	-8.3	0.9	-2.3
Cc1cccc(NC(=O)c2ccc(CN3CCN(Cc4ccccc4)CC3)cc2)c1	11.5	16.2	1.0%	-20.5	-0.2	-4.7
CC(=O)c1ccc(N2CCN(CC(O)COC(c3ccccc3)c3ccccc3C)CC2)cc1 (stereo unspecified)	13.5	-2.1	18.1%	-6.2	0.9	1.9
C/C(=N\NC(=O)c1ccccc1)c1ccccc1Br	65.9	-2.3	0.3%	-7.6	0.4	-2.4
Cc1ccc2cccc(NC3OC(=O)c4ccccc43)c2n1 (stereo unspecified)	4.4	1.5	0.1%	-3.1	-1.8	-1.2
Cc1ccc(-c2ccc(=O)n(CC(=O)Nc3ccc(F)c(Cl)c3)n2)cc1C	26.3	x	2.3%	x	-0.4	x
c1cc(-c2cc3nc(NC4CCCCC4)ccn3n2)ccc1OCCN1CCOCC1	x	-21.8	2.9%	10.9	2.6	u
N/C(=N\OC(=O)Cc1cccs1)c1cccc([N+](=O)[O-])c1	-2.3	-12.8	-0.9%	4.6	-0.5	0.9
COc1cccc(Nc2ncnc3onc(-c4ccccc4OC)c23)c1	-1.8	3.5	0.6%	-29.7	0.1	2.5
O=C(Cc1cccs1)NC1CC(=O)N(c2cccc(F)c2)C1 (stereo unspecified)	-1.3	x	1.2%	x	-0.3	x
COc1ccc(OC)c(-n2c(-c3cc(-c4ccco4)[nH]n3)n[nH]c2=S)c1	-5.0	-8.2	8.4%	-8.1	-0.2	-0.7
CCC(=O)Nc1cccc(SC)c1	-9.7	10.9	-4.7%	-1.6	-0.5	0.8
